# Screening results as filed in PubChem.
# NPYLR7 agonist = mosquito NPYLR7 agonism | HEK293T NPYLR7/Galpha15, GCaMP6s calcium fluorescence | activation, % at 10 µM | 0.15% of 270,000 active; in the data active = activation above about 40%;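 also: 0% = vehicle and 100% = reference agonist at the receptor; some compounds past the cut are filed as inactive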
# NPYLR7 agonist max-min = recorded beside NPYLR7 agonist, whose call it bears; activation, %; measured here: Max-Min RFU normalised activation; some inactives read as strong as hits;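 span of the calcium signal over five minutes; 0% = vehicle and 100% = native peptide agonist; compound fluorescence can raise it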
# The depositor's hits bear a star; & = joins results of further samples.
SMILES,NPYLR7 agonist,NPYLR7 agonist max-min
CCN(CC)c1onc(-c2ccc(F)cc2)c1CN(CCN(C)C)S(=O)(=O)c1ccc(C)cc1,14,14
Cc1cc(C)c2c(C(=O)NC[C@H]3CNC[C@@H]3CO)cc(C)nc2c1,-1,-2
O=C(/C=C/c1ccccc1)NCCNc1cc(-n2cccn2)ncn1,-5,-13
CN(Cc1ccc(N(C)C)cc1)C(=O)c1n[nH]c(C2CC2)c1Br,1,-1
O=S(=O)(NCc1ccccc1)Nc1ccccc1OCC1CCCO1 (stereo not drawn),-1,-4
CC(=O)NCC1CN(c2ccc3c(c2)OCO3)C(=O)O1 (stereo not drawn),1,4
COc1ccc(CCN(C)C(=O)/C=C/c2ccoc2)cc1OC,-11,-18
CCn1cc(NC(=O)N2CCCC2)c2ccccc21,-3,-8
COc1ncc(-c2cc(Cl)ccc2OC)c(OC)n1,1,1
COC(=O)c1ccccc1NC(=O)CCCn1nc(-c2ccc(F)cc2)ccc1=O,5,5
COc1ccc(S(=O)(=O)n2nc(C)c(S(=O)(=O)N3CCCCCC3)c2C)cc1OC,4,2
CN1C(=O)CC(CC(=O)N2CCC(N3CCSCC3)CC2)(c2ccc(-c3ccccc3)cc2)C1=O (stereo not drawn),15,4
Cc1nc(NCc2c(F)ccc(F)c2F)sc1-c1ccn(CCO)n1,21,15
Cc1cnc(C)c(N2CCN(Cc3c(CO)cnc(C)c3O)CC2)n1,2,2
Oc1ccc(Cl)cc1-c1nc2ncc(Br)cc2[nH]1,9,5
COc1cc(C(=O)Oc2coc(CSc3nccc(C)n3)cc2=O)cc(OC)c1OC,-16,-11
CCCCNc1c(N2CCN(C(=O)OCC)CC2)c(=O)c1=O,3,4
CC(=O)Oc1cc(OC(C)=O)c2c(c1)O[C@H](c1ccc(OC(C)=O)c(OC(C)=O)c1)[C@@H](OC(C)=O)C2,-9,-18
COCCCN(CC(=O)N(CCc1ccc(OC)c(OC)c1)Cc1sccc1C)S(=O)(=O)c1ccc([N+](=O)[O-])cc1,-2,9
CN(C)c1cccc(NC(=O)c2ccc(Cl)cc2)c1,-19,-20
COCCNC(=O)c1c(N)n(/N=C\c2ccc(O)c(O)c2)c2nc3ccccc3nc12,5,-4
O=C(O)C1(O)CCN(c2nc(-c3ccccc3)cs2)CC1,-1,0
COC(=O)CCc1c(C)nn(-c2ccc(C(=O)NCCNc3ccc([N+](=O)[O-])cn3)cc2)c1C,-2,-9
CC(Cc1cn(Cc2ccc3c(c2)OCO3)nn1)c1ccccc1 (stereo not drawn),0,3
O=c1ccc2c(c1)oc1c(-c3ccccc3)c3ccccc3[nH]c12,1,-3
Cc1nc(SCc2cccc(C(=O)NCc3ccncc3)c2)nc(N2CCN(C)CC2)c1C,-5,-3
CCCCOc1ccc(S(=O)(=O)n2nc(C)c(S(=O)(=O)N3CCCC(C)C3)c2C)cc1 (stereo not drawn),4,4
O=S(=O)(Nc1ccc(F)c(F)c1)c1ccc2c(c1)OCCO2,-1,0
CSc1ccc(CC(=O)Nc2ncnc3sccc23)cc1,4,0
O=C1OC(c2cccc(F)c2)=NC1=CC1=Cc2ccccc2OC1,5,-1
O=C(NC(c1ccc2c(c1)OCO2)c1ccccn1)C1CCN(CCOc2ccc(Cl)cc2)CC1 (stereo not drawn),9,-2
Cc1nn(C)c(C)c1CCC(=O)N1CCCC(N2CCN(c3ccc(F)cc3)CC2)C1 (stereo not drawn),3,5
CSc1ccc(C(=O)C2CCCN(S(=O)(=O)c3ccccc3)C2)cc1 (stereo not drawn),-22,-20
Cc1nc(CCNC(=O)c2cnn(Cc3ccccc3)c2)nc2c1CCC2,2,12
CNC(=O)CN(C)S(=O)(=O)c1c(C)cc(C)cc1C,-8,-3
O=S(=O)(NC1CCCCC1NC1CCCCC1)c1ccccc1 (stereo not drawn),10,9
Cc1cc(-n2c(C)cc(C(=O)NCc3n[nH]c(=O)[nH]3)c2C)no1,-2,36
COc1ccccc1-n1cc(C(=O)N(C)Cc2csc(C)n2)cn1,15,6
Cc1ccccc1C(c1ncccc1C)N(C)C(=O)C1CCN(Cc2ccc(Cl)cc2)CC1 (stereo not drawn),8,5
CCC(C(=O)NC1CCC(n2cnnc2)CC1)n1cccn1 (stereo not drawn),4,3
COc1ccc(C(=O)COC(=O)c2ccc3c(c2)-c2ccccc2C3=O)cc1Br,8,11
CN(C)c1ccc(C(=O)Nc2c3c(nn2C)CCC3)cc1,0,-2
COc1cc(C)c(-c2nc(Cn3cnc(C4CC4)n3)c(C)o2)cc1C,6,-1
CCOC(=O)c1ccc(S(=O)(=O)NCCn2nc(-c3ccc(F)cc3)ccc2=O)cc1,-5,-6
CCN(C/C=C/c1ccccc1)C(=O)c1c(C)nn(CC)c1C,15,8
COc1ccc(-c2cnc3ncnn3c2N2CCN(S(=O)(=O)c3ccc(C(C)=O)cc3)CC2)cc1OC,6,3
COC(=O)NC(Oc1ccccc1)C(F)(F)C(F)(F)C(F)(F)C(F)F (stereo not drawn),-1,-4
O=C(NC1CC1)c1cccc(Nc2c(Oc3ccc(F)cc3)cnn(-c3ccc(F)cc3)c2=O)c1,17,17
CCN(CC)CCOc1ccccc1NC(=O)c1cnc(C)cc1Cl,4,8
OCC#Cc1ccc(CN2CCC3(CCOCC3)CC2)cc1,1,-1
COc1ccc(C(=O)N2C(C(=O)NCc3ccccn3)COC23CCN(C(=O)c2cccc(Cl)c2)CC3)cc1 (stereo not drawn),8,18
c1ccc2c(c1)nc(Nc1ccc3c(c1)OCO3)c1nncn12,4,3
COc1ccccc1-c1cc(C(=O)N2CCN(C(c3ccccc3)c3ccccc3)CC2)nc2cc(C(C)(C)C)nn12,11,10
O=C(N1CC[C@@H](O)C1)C1(c2cccc(Br)c2)CC1,0,2
CN(CCCc1nccn1C)Cc1cc2n(n1)CCCNC2,10,11
CC1=C(C(=O)OC(C)C)C(c2ccc(O)cc2)C2=C(CC(c3ccccc3)CC2=O)N1 (stereo not drawn),2,0
COc1ccc(-n2c(=O)[nH]c3c(C(N)=O)nc(-c4ccccc4Cl)nc32)cc1OC,11,5
CCOC(=O)C1(Cc2cccc(Cl)c2)CCCN(C(=O)c2ccoc2C)C1 (stereo not drawn),-8,-11
CN(C)c1ccc(C=Cc2ccc3c4ccccc4ccc3[n+]2-c2ccccc2)cc1,1,1
COC(=O)CNC(=O)N1CCCCC1c1cccc(F)c1 (stereo not drawn),8,7

# The results go on:
SMILES,NPYLR7 agonist,NPYLR7 agonist max-min
CC1CCc2c(sc3nc(CSc4nnc(N)s4)[nH]c(=O)c23)C1 (stereo not drawn),5,0
Cc1ncc2c(c1CNC(=O)c1ccc3c(c1)OCO3)CCN(C(=O)c1cc3ccccc3n1C)C2,26,7
CC(C)c1cccc(Oc2cnn(-c3ccccc3)c(=O)c2Nc2cccc(C(=O)N3CCOCC3)c2)c1,5,9
Cc1ncnc(N2CCC(CO)(Cc3ccccc3Cl)CC2)c1C,6,-5
CN(C)C(=O)Sc1cnc2nccn2c1,11,8
CC(C)(C)n1c(NC(=O)c2ccc(F)cc2Cl)nc2ccccc21,6,2
NC(=O)Cc1nc2ccccc2n1CC(O)c1cccc(Br)c1 (stereo not drawn),1,-1
COc1ccc(S(=O)(=O)N2CCCC(C(=O)Nc3ccc(F)cc3)C2)cc1 (stereo not drawn),4,1
O=C(COc1ccc(C2SCCS2)cc1)NC12CC3CC(CC(C3)C1)C2,2,-1
O=C1CC(C(=O)N2CCCc3ccc(F)cc32)c2ccccc2N1 (stereo not drawn),-4,-3
Cc1nc(N2CCN(C(=O)c3cccc4ccccc34)CC2)cc(-n2ccnc2)n1,-16,-23
Cc1c(C(=O)Nc2ccccc2N2CCOCC2)oc2ccc(F)cc12,1,8
CCCCc1ccc(S(=O)(=O)c2cnc(SCC(=O)NC3CCCC3)[nH]c2=O)cc1,0,-6
COc1ccccc1-c1nnc2ccc(OCCNS(=O)(=O)c3cccs3)nn12,-3,0
O=C1NC(C(=O)O)=CC(c2cc(Cl)ccc2Cl)N1 (stereo not drawn),7&-1,6&-3

# A second format for 18 compounds above:
# Every second line gives: NPYLR7 agonist | NPYLR7 agonist max-min
- CN(CCCc1nccn1C)Cc1cc2n(n1)CCCNC2
→ 10 | 11
- CC1=C(C(=O)OC(C)C)C(c2ccc(O)cc2)C2=C(CC(c3ccccc3)CC2=O)N1 (stereo not drawn)
→ 2 | 0
- COc1ccc(-n2c(=O)[nH]c3c(C(N)=O)nc(-c4ccccc4Cl)nc32)cc1OC
→ 11 | 5
- CCOC(=O)C1(Cc2cccc(Cl)c2)CCCN(C(=O)c2ccoc2C)C1 (stereo not drawn)
→ -8 | -11
- CN(C)c1ccc(C=Cc2ccc3c4ccccc4ccc3[n+]2-c2ccccc2)cc1
→ 1 | 1
- COC(=O)CNC(=O)N1CCCCC1c1cccc(F)c1 (stereo not drawn)
→ 8 | 7
- CC1CCc2c(sc3nc(CSc4nnc(N)s4)[nH]c(=O)c23)C1 (stereo not drawn)
→ 5 | 0
- Cc1ncc2c(c1CNC(=O)c1ccc3c(c1)OCO3)CCN(C(=O)c1cc3ccccc3n1C)C2
→ 26 | 7
- CC(C)c1cccc(Oc2cnn(-c3ccccc3)c(=O)c2Nc2cccc(C(=O)N3CCOCC3)c2)c1
→ 5 | 9
- Cc1ncnc(N2CCC(CO)(Cc3ccccc3Cl)CC2)c1C
→ 6 | -5
- CN(C)C(=O)Sc1cnc2nccn2c1
→ 11 | 8
- CC(C)(C)n1c(NC(=O)c2ccc(F)cc2Cl)nc2ccccc21
→ 6 | 2
- NC(=O)Cc1nc2ccccc2n1CC(O)c1cccc(Br)c1 (stereo not drawn)
→ 1 | -1
- COc1ccc(S(=O)(=O)N2CCCC(C(=O)Nc3ccc(F)cc3)C2)cc1 (stereo not drawn)
→ 4 | 1
- O=C(COc1ccc(C2SCCS2)cc1)NC12CC3CC(CC(C3)C1)C2
→ 2 | -1
- O=C1CC(C(=O)N2CCCc3ccc(F)cc32)c2ccccc2N1 (stereo not drawn)
→ -4 | -3
- Cc1nc(N2CCN(C(=O)c3cccc4ccccc34)CC2)cc(-n2ccnc2)n1
→ -16 | -23
- Cc1c(C(=O)Nc2ccccc2N2CCOCC2)oc2ccc(F)cc12
→ 1 | 8

# More structures follow.
SMILES,NPYLR7 agonist,NPYLR7 agonist max-min
Cc1cc(=O)n(CC(=O)Nc2ccccn2)cn1,8,-2
Cc1ccc(C)c(NCCn2c(C)cn3c4c(=O)[nH]c(=O)n(C)c4nc23)c1,4,2
S=c1nc2cc(Cl)ccc2c2cc[nH]n12,-15,-21
CC(C)CCOC1CCN(C(=O)NCC2CCCN(C)C2)C1 (stereo not drawn),6,2
O=C1Nc2ccccc2Oc2ccc(NS(=O)(=O)CBr)cc21,13,10
COc1ccc(-c2nnc3ccc(OCCNC(=O)c4ccc5ccccc5c4)nn23)cc1,-7,-13
O=C(Nc1cccc(-c2nnc3n2CCCCC3)c1)c1ccc2n[nH]nc2c1,-1,20
Cn1ccnc1C(O)(CC(=O)N1CCc2ccccc2C1)C(F)(F)F (stereo not drawn),1,-1
Cn1c(=O)c2c(nc(NCCCO)n2Cc2ccccc2)n(C)c1=O,-7,-3
COc1ccc(CC2CCN(S(=O)(=O)c3ccc(C(F)(F)F)cc3Cl)CC2)cc1,5,2
FC(F)(F)c1cc(-n2c(C3(c4ccc(Cl)cc4)CCC3)n[nH]c2=S)cc(C(F)(F)F)c1,-10,-19
COc1ccc(C2c3cc(OC)c(OC)cc3CCN2C(=O)/C=C/c2ccccc2)cc1OC (stereo not drawn),15,8
COCC(NC(=O)Nc1n[nH]c(Cc2ccccc2)n1)c1ccnn1C (stereo not drawn),1,1
CC12CCC(C(=O)Oc3cccnc3)(OC1=O)C2(C)C (stereo not drawn),4,4
CCOc1ccccc1NC(=O)N(CCN1CCOCC1)CC(=O)N(Cc1ccc(F)cc1)Cc1sccc1C,-12,-2
Cc1cc(=O)[nH]c(-n2nc(C)cc2NC(=O)c2ccco2)n1,13,4
CC1CCC(NS(=O)(=O)c2ccc(S(=O)(=O)N3CCOCC3)cc2)CC1 (stereo not drawn),-1,1
CC(=O)c1ccc(C(=O)N2CCCC(Nc3ccc(C(C)C)cc3)C2)s1 (stereo not drawn),28,7
CCOC(=O)CNC(=O)CSc1ccc2nnc(-c3ccc(OC)cc3)n2n1,16,16
CC(NCc1ccc(-n2ccc(C(F)(F)F)n2)cc1)C1CC1 (stereo not drawn),0,-1
CCOC(=O)C1(CCCc2ccccc2)CCCN(C(=O)c2ccsc2)C1 (stereo not drawn),7,6
CC(C)CC(=O)N(Cc1ccccc1)Cc1c(-c2ccccc2)noc1N1CCC(C)CC1,3,6
CCOC(=O)C1(C)CCN1C(=O)c1cccc(C#N)c1 (stereo not drawn),-1,0
O=C(Nc1nnc(COc2ccccc2)s1)c1cccs1,-7,-10
Cc1ccccc1CC1(C(=O)O)CCCN(c2ccc3ccccc3n2)C1 (stereo not drawn),4,2
COc1cccc(F)c1C(C)NC(=O)N(C)Cc1ccsc1 (stereo not drawn),2,2
Cc1nnsc1C(=O)Nc1nn(C)c2c1C(c1cccs1)CC(=O)N2 (stereo not drawn),-13,-21
CCN(c1ccc(NC(=O)c2ccc(C)n2C)cc1)C(C)C,1,-1
CCc1ccc(C(=O)N(CC(=O)N2c3ccccc3-n3cccc3C2c2ccc(Cl)cc2)C2CC2)cc1 (stereo not drawn),19,15
COC(=O)c1c(C)nc2n(Cc3ccccc3)c3ccccc3n12,-15,-22
O=C(CSc1nnc2scc(-c3ccccc3)n12)NCc1ccco1,-3,-12
CCOC(=O)c1[nH]c(=O)[nH]c1CSC1=NCCS1,1,1
Cc1cc(C)n(Cc2ccc(F)c(F)c2)c1C(=O)Nc1ccc(C(C)C)cc1,-2,10
O=C(c1cccc(Cl)c1)N(Cc1nc2cc(Cl)ccc2o1)C1CC1,-4,3

# This is a subset; count on the stated rates, not on these rows.
